Sfp PPTase inh: qHTS Assay for Inhibitors of Bacillus subtilis Sfp phosphopantetheinyl transferase (PPTase); 4'-phosphopantetheinyl transferase ffp (Bacillus subtilis), Q9F4F7; Biochemical Sfp PPTase activity, qHTS; Potency, µM, inactives show max response, negative = inhibition, hits mostly inhibitors; 310,000 tested, 3.5% active; AID 1490, 2009; active = well fitted inhibition curve with a large enough effect; inconclusive = small, poorly fitted or top-dose-only effect, or another doubt; inactive = no such curve, though single readings can be large or run the other way;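 also: the enzyme is Sfp with the accession as filed and its product quenches rhodamine fluorescence; potency is read from the fitted curve at half-maximal effect; 0% = enzyme reaction without inhibitor and -100% = no enzyme wells; top concentration of the series not given in the record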
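After 15 min at room temperature with compound, 15 nM Sfp received 5 uM rhodamine-CoA plus 12.5 uM BHQ-2-ybbR (50 mM Hepes pH 7.6, 10 mM MgCl2). Rate came from the fluorescence difference over 30 min, ex 525/em 598 nm.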
TRPV1 potentiator: HTS Assay for Compounds that Act as Potentiators of the Vanilloid Receptor 1; 320,000 tested, 0.02% active; TRPV1-expressing cells, Fluo-8 calcium influx, capsaicin EC20 potentiation; host cell line not named in the record; control for the full effect not named in the record; potentiation, % at 8.33 µM; Transient receptor potential cation channel subfamily V member 1 (Homo sapiens), Q8NER1; active means potentiation above 80%; inconclusive means 30% to 80%; inactive means below 30%; also: 0% is about no effect
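Fluo-8 calcium influx in TRPV1-expressing cells, kinetic read (ex 480/em 520 nm). Compound added and read 3 min for agonist activity, followed by capsaicin at EC20 final and 2 min further read for enhancement.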
gsp ag: qHTS for Agonist of gsp, the Etiologic Mutation Responsible for Fibrous Dysplasia/McCune-Albright Syndrome: qHTS; gsp mutant cells, cAMP HTRF, 30 min; control for the full effect not named in the record; Potency, µM (top dose mostly 76.9 µM), for the others: at the top dose activation (cAMP increase), usual class: activators; 340,000 tested, 0.13% active; AID 624287, 2012; active = well fitted activation curve with a large enough effect; inconclusive = small, poorly fitted or top-dose-only effect, or another doubt; inactive = no such curve, though single readings can be large or run the other way; cell line not stated here;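 also: phosphodiesterase inhibitor Ro 20-1724 added with compounds to block cAMP breakdown; potency is read from the fitted curve at half-maximal effect; nearly all actives have a fitted effect of over 60% in size; about a fifth of the inactives were tested at one dose only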
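Cells stably selected in G418 were plated at 2000/well, grown 16-24 hr, then given compounds in DMSO with the PDE inhibitor […] (300 uM solution added) for 30 min at 37C; cAMP was read by HTRF.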
D2 PAM: Beta-Arrestin HTS for Positive Allosteric Modulators of the Human D2 Dopamine Receptor: Potentiators. DiscoveRx D2 beta-arrestin cells, luminescence, 90 min; 100% = 57 uM dopamine signal. potentiation, % (concentration not given with the values). 360,000 tested, 0.23% active. AID 624464, 2012; active = potentiation of 50% or more; inconclusive = 30% to 50%; inactive = 30% or less;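 also: compound concentration not given in the record; tested on top of an EC20 dose of dopamine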
Target sequence (P14416 whole entry, looked up): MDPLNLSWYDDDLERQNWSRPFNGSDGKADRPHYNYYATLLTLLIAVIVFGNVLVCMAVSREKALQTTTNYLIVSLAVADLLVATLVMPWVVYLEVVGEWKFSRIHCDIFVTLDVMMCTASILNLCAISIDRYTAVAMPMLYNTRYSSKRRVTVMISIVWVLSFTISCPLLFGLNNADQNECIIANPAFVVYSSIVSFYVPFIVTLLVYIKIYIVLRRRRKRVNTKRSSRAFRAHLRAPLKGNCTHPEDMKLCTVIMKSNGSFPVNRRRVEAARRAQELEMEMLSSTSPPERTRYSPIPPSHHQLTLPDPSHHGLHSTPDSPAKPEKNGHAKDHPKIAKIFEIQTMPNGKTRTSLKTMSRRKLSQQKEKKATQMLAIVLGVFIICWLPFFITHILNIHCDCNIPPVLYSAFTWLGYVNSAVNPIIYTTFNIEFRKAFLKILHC
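PathHunter beta-arrestin assay in DiscoveRx D2 cells. Compounds were added with an EC20 of dopamine (50 nM final) for 90 min at 37 deg C. Luminescence was read 1 h after detection reagent, with 57 uM dopamine as the EC100 control.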
Menin-MLL FL inh: qHTS Assay for Inhibitors Targeting the Menin-MLL Interaction in MLL Related Leukemias: Competition With Fluorescein Labeled MLL-derived Peptide; Fluorescence polarization, fluorescein-MLL peptide displacement from menin; FP activity change, % at 61.4 µM; 290,000 tested, under 10 active; inconclusive = falling polarisation curve, or a change in total fluorescence; inactive = total fluorescence flat and polarisation flat or rising; no compound was filed as active; the % refers to the polarisation; negative = inhibition;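 also: % of control where 0% means no effect; inhibitors lower the polarisation; unlabelled MLL peptide was the positive control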
ClpP mod: qHTS Assay for Activators of ClpP. Potency, µM (doses to about 57.5 µM), for inactives: at the highest dose activity change, negative = active. AID 651965, 2013. ATP-dependent Clp protease proteolytic subunit (Bacillus subtilis (strain 168)), P80244. purified B. subtilis ClpP, FRET peptide cleavage, 20 min. 340,000 tested, 1.9% active; active = well fitted falling curve with a large enough effect; inconclusive = small, poorly fitted or top-dose-only effect; inactive = no such curve, though single readings can be large or run the other way; also: potency is read from the fitted curve at half-maximal effect; the source files actives as falling curves though it sought activators and does not explain the sign; nearly all actives have a fitted effect of over 65% in size; many hits overshoot -100%
Target sequence (P80244 whole entry, looked up): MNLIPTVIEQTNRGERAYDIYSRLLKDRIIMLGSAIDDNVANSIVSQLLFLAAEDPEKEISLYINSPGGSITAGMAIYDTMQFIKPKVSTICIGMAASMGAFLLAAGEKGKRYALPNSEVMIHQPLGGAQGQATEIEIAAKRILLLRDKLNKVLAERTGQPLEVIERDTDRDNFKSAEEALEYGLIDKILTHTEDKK
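Purified B. subtilis ClpP, 10 microg/mL final in Tris/HCl pH8 with KCl, BSA, glycerol and Tween-20, cleaved an Abz/nitrotyrosine-quenched decapeptide. Fluorescence (ex 320, em 430) was read at 0 and 20 min at room temperature. Delta was normalized to 5.8 microM ADEP and DMSO/no-enzyme controls.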
gsp antagonist: qHTS for Antagonists of gsp, the Etiologic Mutation Responsible for Fibrous Dysplasia/McCune-Albright Syndrome: qHTS; gsp-mutant cells, cAMP HTRF, 30 min; control for the full effect not named in the record; Potency, µM (series often up to 76.9 µM), for the others: top-dose activity change, negative = inhibition, usual class: inhibitors; 340,000 tested, 0.4% active; AID 624288, 2012; active = falling curve of any shape with a large fitted effect; inconclusive = falling curve, mostly with a smaller effect; inactive = flat or rising curve; cell line not stated here;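 also: intracellular cAMP measured with PDE inhibitor Ro 20-1724 present during compound exposure; potency is read from the fitted curve at half-maximal effect; % is scaled to controls: 0 for no effect and ±100 for the full control effect; nearly all actives have a fitted effect of over 65% in size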
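Measurement of cellular cAMP by homogeneous time-resolved fluorescence following a 30 min compound exposure at 37C. The PDE inhibitor […] was present throughout; the assay buffer was DPBS with 0.05% BSA and 0.005% Tween 20.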
* marks the source's active call; other numbers are inactive results; ? = inconclusive; · = not tested or not shown; [ ] = another dose, or the depositor's remark.

SMILES | Sfp PPTase inh | TRPV1 potentiator | gsp ag | D2 PAM | Menin-MLL FL inh | ClpP mod | gsp antagonist
C=CCC1(CC=C)CCCN1C(=O)CC1C(=O)NCCN1Cc1cc(OC)cc(OC)c1 (stereo not given) | -3% | -1 | 0% | 0 | 1.3 | · | -8%
COc1ccccc1-c1nnc(NC(=O)c2ccc(S(=O)(=O)N(C)Cc3ccccc3)cc2)o1 | 18% | 2 | 5% | -8 | 1.1 | 0.1% | -25%
COc1ccc(CCNc2oc(Cc3cccc4ccccc34)nc2C#N)cc1OC | 14% | -23 | -18% | 4 | 3.0 | ? | ?
Cc1ccc(O)c(-c2cc(C(F)(F)C(F)F)nc(-c3ccccc3)n2)c1 | 10% | · | 19% | 0 | 4.6 | 25µM* | 4%
CC(=O)N(C)c1cc([N+](=O)[O-])ccc1OCc1ccccc1 | · | · | -16% | -16 | · | -2.6% | 0%
O=C(COC(=O)c1ccc(Br)o1)NCC(=O)Nc1ccc(F)cc1 | · | -7 | 26% | 0 | · | -0.1% | 15%
Cn1c(=O)c(=O)n(C)c2cc(S(=O)(=O)N3CCN(C4CCCCC4)CC3)ccc21 | -10% | -20 | ? | -3 | -1.3 | -9.7% | 3%
O=S(=O)(c1ccccc1)N(Cc1ccc(Cl)cc1)c1ccncc1 | 6% | 6 | 9%[15.4 µM] | -22 | -0.9 | · | ·
CC(C)(C)NC(=O)CSc1nnc(-c2ccncc2)n1Cc1ccccc1 | 15% | 10 | -9% | 14 | -0.6 | -1.2% | 8%
C=CCn1c(NCc2ccc(OC)cc2)nc2ccccc21 | 17% | 16 | 1% | -8 | -0.3 | · | 6%
N#C/C(=C\c1ccc[nH]1)C(=O)NCC1CCCO1 (stereo not given) | 9% | -7 | 6%[15.4 µM] | -28 | 6.0 | -2.5% | 3%
O=C(CCc1nc2ccccc2c(=O)[nH]1)N1CCCc2ccccc21 | · | 6 | 3%[15.4 µM] | -12 | · | · | -1%
CCCCn1c(N)c(S(=O)(=O)c2ccc(C)cc2)c2nc3ccccc3nc21 | -2% | -5 | -32% | -1 | 6.6 | · | ?
COc1cccc(CCNC(=O)CCCC(=O)c2ccccc2)c1 | 16% | 19 | 10% | -4 | -0.3 | 1.6% | -3%
O=C(Nc1ccc(Cl)cn1)c1cccc(F)c1 | 18% | -1 | 2% | -1 | 1.6 | 0.9% | 6%
COc1ccc(-c2nc(CS(=O)CC(=O)NC3CCC(C)CC3)c(C)o2)cc1OC (stereo not given) | 0% | 18 | -72%[inhibitor] | -12 | · | 3.6% | 3%
Cc1ccc(-c2nnnn2CS(=O)(=O)c2ccccc2)cc1 | 7% | 3 | -4% | -3 | -0.5 | -1.9% | -9%
O=C(CCCN1C(=O)S/C(=C\C=C\c2ccccc2)C1=O)Nc1ccc(O)cc1 | 10% | -5 | 5% | -6 | 2.2 | -3.3% | ?
Cc1ccc(C)c(NC(=O)CN2C(=O)c3ccccc3C2=O)c1 | · | · | 8%[15.4 µM] | -4 | · | · | 4%
COc1ccccc1CCNC(=O)C(=O)NCC1OCCN1S(=O)(=O)c1ccc(C)cc1 (stereo not given) | 12% | ? | -4% | -2 | 1.3 | 2.0% | -7%
CCc1nnc(NC(=O)Cn2c(=O)oc3ccccc32)s1 | 11% | 3 | -65%[inhibitor] | -16 | 1.5 | -0.8% | 3%
Nc1ccc(-n2nnnc2CN2CCOCC2)cc1 | 12% | 0 | -10% | -7 | 2.9 | 3.7% | 9%
O=C(NCn1cnccc1=O)c1ccccc1 | -3% | 2 | ? | -1 | 0.7 | -1.3% | 0%
Cc1ccc(C)c(NC(=O)COC(=O)CC2c3ccccc3CCN2S(=O)(=O)c2ccc(F)cc2)c1 (stereo not given) | 13% | ? | -17% | -21 | · | -7.0% | 5%
S=C(NCc1ccc(Cl)cc1)NC12CC3CC(CC(C3)C1)C2 | 14% | -4 | -5% | -10 | 3.2 | -3.1% | -29%
Cc1ccc(NC(=O)CSc2cn[nH]n2)cc1 | 16% | 9 | -12% | -3 | -1.4 | · | 3%
Cc1ccccc1NC(=S)NC(=O)/C=C/c1ccco1 | ? | 9 | -23%[15.4 µM] | -10 | ? | -2.5% | -1%
Cc1cccc(N/C(=N/S(=O)(=O)c2ccccc2)c2ccccc2)n1 | 14% | -3 | -35%[inhibitor] | -9 | 6.8 | 0.6% | -4%
CN(c1ccccc1)S(=O)(=O)c1ccc(Cl)c(C(=O)Nc2ccncc2)c1 | · | -23 | ? | -3 | · | -1.0% | -3%
CCOC(=O)CNC(=O)c1cn(C)c(=O)c2cc(OC)c(OC)cc12 | ? | 4 | -15% | -15 | -0.9 | -29% | 10%
COc1ccc2c(c1)OC(O)(C(F)(F)C(F)F)CC2=O (stereo not given) | 8% | -17 | -35%[inhibitor] | -1 | 1.5 | -2.7% | -17%
COc1ccc(C(=O)OCC(=O)Nc2cc(C)on2)cc1F | · | · | -21% | -5 | · | -0.6% | ·
COc1ccc(-c2noc(C3CCCN(C(=O)c4ccc(F)cc4)C3)n2)cc1 (stereo not given) | 7% | ? | -68%[inhibitor] | -6 | 0.5 | · | -20%
CCN(C(=O)CN1CCCCC1C)c1c(N)n(Cc2ccccc2)c(=O)[nH]c1=O (stereo not given) | · | -3 | -39%[inhibitor] | 0 | · | -2.5% | 1%
CCCC(C(=O)Nc1cc(S(=O)(=O)N2CCOCC2)ccc1OC)c1ccccc1 (stereo not given) | -11% | 8 | 2% | 5 | · | 1.4% | 4%
CC(C)CC(NC(=O)/C(=C/c1ccco1)NC(=O)c1ccc(Br)o1)C(=O)O (stereo not given) | -16% | 1 | 6% | -6 | ? | -5.5% | 2%
Cc1nn2c(NCCN(C)C)c3c(nc2c1-c1ccccc1)CCC3 | -10% | -1 | -1% | -10 | 0.0 | -0.6% | ?
COC(=O)c1ccc(NC(=O)CSc2nnc(-c3ccncc3)n2N)cc1 | 3% | 6 | 2% | -8 | 1.1 | 1.1% | 10%
Cn1c(=O)c2ncn(CC(=O)NCCOc3ccccc3)c2n(C)c1=O | 4% | 14 | ? | -7 | 4.0 | 3.3% | 13%
Cc1ccc(CSc2nnc3c(n2)OC2(Nc4ccccc4-3)C(=O)Nc3ccc(F)cc32)cc1 (stereo not given) | -16% | 27 | -12% | -55 | 7.9 | 29% | -8%
CC(=O)Nc1ccc(S(=O)(=O)Nc2ccc(C(=O)NCC(=O)O)cc2)cc1 | -12% | 5 | 21% | -6 | 1.0 | -0.2% | 11%
O=C(COC(=O)c1cc(=O)[nH]c2ccccc12)NC(=O)c1ccccc1 | · | 9 | 5%[15.4 µM] | -7 | · | · | -14%
CCN1CCN(C(=O)Cn2ncc3c([nH]c4ccccc43)c2=O)CC1 | 10% | 2 | -6% | -3 | · | -5.5% | 1%
CCOc1ccccc1NC(=O)CCCc1nc2ccccc2c(=O)[nH]1 | 14% | -4 | 19% | -12 | 2.1 | -1.6% | 3%
CCCCCC(=O)N1C[C@H](n2cc(COC(=O)c3ccccc3)nn2)[C@@H](O)C[C@@H]1c1ccc(OC)cc1 | · | · | -142%[inhibitor] | -12 | · | 0.3% | ·
COc1ccccc1N1CCN(C2CCCN(C(=O)c3ccsc3)C2)CC1 (stereo not given) | · | · | -44% | -24 | · | 1.7% | 9%
CCn1c(C)nc2cc(C(=O)N/N=C/c3ccc(O)c(O)c3O)ccc21 | 2.2µM* | 10 | -4%[15.4 µM] | 16 | 2.2 | · | -9%
O=C(NCC(=O)N(c1ccc2c(c1)OCCO2)C(C(=O)NC1CCCC1)c1ccco1)c1ccco1 (stereo not given) | -11% | 1 | 7% | -4 | 1.1 | 0.0% | -9%
CC(=O)Nc1cc2nc(C)n(Cc3ccccc3[N+](=O)[O-])c2nc1C | 16% | -19 | -11% | -3 | 3.7 | -0.2% | -3%
CC/C(=C(/c1ccccc1)c1ccc(OCC[N+](C)(C)C)cc1)c1ccccc1 | · | · | 0% | -26 | · | 1.3% | -2%
COC(=O)c1ccc(COc2ccc(F)cc2)o1 | 6% | 24 | 24% | -3 | 5.3 | -0.3% | 13%
O=C(COC(=O)/C=C/c1cccc(Br)c1)Nc1cccc(S(=O)(=O)NC2=NCCC2)c1 | · | 17 | ? | -11 | · | -3.3% | -3%
CC(C)CNC(=O)COc1ncnc2sccc12 | 15% | 6 | 2% | 10 | 0.4 | -1.0% | 8%
Cc1cccc(CC(=O)NC2CCS(=O)(=O)C2)c1 (stereo not given) | · | -12 | ? | -20 | · | -1.1% | 5%
CS(=O)(=O)c1[nH]nc(-c2ccccc2)c1C#N | 20% | -1 | -17% | -4 | 0.8 | 0.7% | -8%
O=C(COC(=O)c1ccccc1F)NC1CC1 | · | -1 | -8% | -5 | · | 1.3% | 14%
CC1CCc2c(sc(NC(=O)C3=COCCO3)c2C(N)=O)C1 (stereo not given) | · | 5 | 21% | -4 | · | -4.3% | -9%
c1ccc(COc2ccc(CN3CCN(c4ccccn4)CC3)cc2)cc1 | ? | 8 | -38% | 18 | 0.6 | -4.6% | 9%
CCc1ccc(N(C(=O)CNC(=O)c2ccco2)C(C(=O)NC2CCCC2)c2ccncc2)cc1 (stereo not given) | 2% | -1 | 1%[15.4 µM] | -8 | -5.6 | 0.1% | 9%

Assay outcomes: PubChem BioAssay, National Center for Advancing Translational Sciences (NCATS)
